RE007 growth inh: qHTS Assay for Inhibitors of the HIV-1 protein Vpr | S. pombe RE007 Vpr strain, BacTiter-Glo ATP luminescence, 24 h; control for the full effect not named in the record | hit rate 0.21% among 360,000 | Potency, µM (series often up to 92.2 µM), for the others: top-dose activity change, negative = less growth; active = well fitted falling curve with a large enough effect; inconclusive = small, poorly fitted or top-dose-only effect; inactive = no such curve, though single readings can be large or run the other way;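 further: on the % scale 0 is the no-effect control and ±100 the full control effect; nearly all actives have a fitted effect of over 50% in size; the assay follows cell death caused by Vpr and the record does not say whether a fall means rescue or toxicity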
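Fission yeast strain RE007, carrying one chromosomally integrated HIV-1 vpr copy, was seeded at OD 0.01 in PMG+AL medium with 23 nL pinned compound. After 24 h at 30 °C and 99% humidity, viability was read by BacTiter-Glo luminescence.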
Cruzain Triton: qHTS Assay for Promiscuous and Specific Inhibitors of Cruzain (with detergent); Cruzipain (Trypanosoma cruzi), P25779; purified cruzain, Z-FR-AMC fluorescence, 0.01% Triton; Potency, µM, without a hit: max response, negative = inhibition, usual class: inhibitors; hit rate 0.43% among 200,000; AID 1478, 2009;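 further: plate controls were neutral wells for no effect and buffer without enzyme for full effect; nearly all actives have a fitted effect of over 40% in size; top concentration of the series not given in the record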
Target sequence (P25779 123-467 limits assumed): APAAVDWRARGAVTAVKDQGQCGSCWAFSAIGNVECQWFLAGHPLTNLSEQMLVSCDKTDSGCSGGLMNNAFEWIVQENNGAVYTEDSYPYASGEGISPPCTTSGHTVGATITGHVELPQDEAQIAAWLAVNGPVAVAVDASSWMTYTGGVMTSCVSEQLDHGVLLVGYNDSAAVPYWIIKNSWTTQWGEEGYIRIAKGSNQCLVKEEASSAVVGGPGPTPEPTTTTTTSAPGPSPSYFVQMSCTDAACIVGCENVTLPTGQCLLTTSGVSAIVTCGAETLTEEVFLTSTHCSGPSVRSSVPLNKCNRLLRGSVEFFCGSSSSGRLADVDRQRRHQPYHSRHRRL
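Detergent-containing run (0.01% Triton X-100) in acetate buffer pH 5.5 with 5 mM DTT: enzyme at 1.5 nM final, 15 min compound preincubation at room temperature, then 2 uM Z-FR-AMC substrate. Activity taken as 60 s fluorescence increase at 360/450 nm.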
SARS PLP yeast: qHTS of Yeast-based Assay for SARS-CoV PLP. S. cerevisiae expressing SARS-CoV PLpro, growth rescue; control for the full effect not named in the record. AID 485353, 2010. Potency, µM (titrated, usually from 32.9 µM), for inactives: at the highest dose activity, positive = growth rescue. hit rate 0.19% among 330,000; active means well fitted rising curve with a large enough effect; inconclusive means small, poorly fitted or top-dose-only effect; inactive means no such curve, though single readings can be large or run the other way; further: 0% is about no effect; nearly all actives have a fitted effect of over 55% in size; growth read by luminescence after 48 h
2A StopGo: High Throughput Screening for Foot and Mouth Disease Virus Antivirals. hit rate 1.2% among 410,000. Potency, µM (series often up to 57.9 µM), without a hit: top-dose signal change, negative = less light. AID 1159524, 2015. human cells with a luciferase reporter of 2A StopGo recoding; control for the full effect not named in the record; active = well fitted falling curve with a large enough effect; inconclusive = small, poorly fitted or top-dose-only effect; inactive = no such curve, though single readings can be large or run the other way; tested in HEK293T cells; further: on the % scale 0 is the no-effect control and ±100 the full control effect; nearly all actives have a fitted effect of over 45% in size; luciferase light after 4 h
NS1 function inh: qHTS Assay for Inhibitors of Influenza NS1 Protein Function; S. cerevisiae slowed by influenza A NS1, growth recovery by OD600; hit rate 0.4% among 270,000; Potency, µM (highest dose often 46.1 µM), for the others: at the top dose activity, positive = more growth; active means well fitted rising curve with a large enough effect; inconclusive means small, poorly fitted or top-dose-only effect; inactive means no such curve, though single readings can be large or run the other way; further: nearly all actives have a fitted effect of over 50% in size
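S. cerevisiae expressing influenza A NS1, grown in glucose, washed, then diluted 1:100 into pH 6.0 -URA galactose medium with 23 nl compound. Growth recovery read as OD600; NS1-free strain serves as control.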
Lassa entry inh: qHTS for Inhibitors of binding or entry into cells for Lassa Virus; Potency, µM (series often up to 37.9 µM), inactives show at the highest dose activity change, negative = inhibition, hits mostly inhibitors; hit rate 1.2% among 300,000; Lassa virus pseudotype entry inhibition, cell reporter; control for the full effect not named in the record; AID 540256, 2011; active means well fitted inhibition curve with a large enough effect; inconclusive means small, poorly fitted or top-dose-only effect, or effect the other way; inactive means flat fitted curve, though single readings scatter; tested in HEK293 cells; further: on the % scale 0 is the no-effect control and ±100 the full control effect; nearly all actives have a fitted effect of over 50% in size; luciferase read-out
Marburg entry inh: qHTS for inhibitors of binding or entry into cells for Marburg Virus. Marburg virus pseudotyped entry inhibition, cell reporter; control for the full effect not named in the record; about a third of the inactives were read at about 46 µM. Potency, µM (doses to about 37.8 µM), inactives show top-dose activity change, negative = inhibition, usual class: inhibitors. hit rate 1.8% among 300,000. AID 540276, 2011; active = well fitted inhibition curve with a large enough effect; inconclusive = small, poorly fitted or top-dose-only effect, or effect the other way; inactive = flat fitted curve, though single readings scatter; tested in HEK293 cells; about a fifth of its hits are not listed in these tables; further: on the % scale 0 is the no-effect control and ±100 the full control effect; luciferase read-out
Cruzain noTriton: qHTS Assay for Promiscuous and Specific Inhibitors of Cruzain (without detergent); Cruzipain (Trypanosoma cruzi), P25779; purified cruzain, Z-FR-AMC fluorescence, no detergent; Potency, µM, for the others: max response, negative = inhibition, usual class: inhibitors; hit rate 2.3% among 200,000;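 further: plate controls were enzyme without inhibitor for no effect and buffer without enzyme for full effect; nearly all actives have a fitted effect of over 40% in size; top concentration of the series not given in the record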
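Purified cruzain at 1.5 nM, pre-incubated 15 min with compound at room temperature in 100 mM sodium acetate pH 5.5, 5 mM DTT, 0.00005% Triton X-100. Reaction started with 2 uM Z-FR-AMC; AMC fluorescence increase over 60 s gives rate.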
An asterisk follows results filed as active; & = joins results of further samples; [ ] = dose if it differs, or a comment. Unless noted, the call rests on the fitted dose curve; in most records, active means well fitted curve in the direction sought with a large enough effect; inconclusive means small, poorly fitted or top-dose-only effect, or another doubt; inactive means no such curve, though single readings can be large; an effect the other way counts as inactive or inconclusive. Potency means the concentration at half of the fitted maximal effect.

What do the screens show for `CCOC(=O)C1C(=O)CC(C)(O)C(C(=O)OCC)C1c1ccc2c(c1)OCO2` (stereo not given)?
RE007 growth inh: -10%; 2A StopGo: 16%; Lassa entry inh: 25%; Marburg entry inh: -12%

What do the screens show for `CCc1ccc(NC(=O)c2cc(-c3ccc(OC)cc3)on2)cc1`?
RE007 growth inh: 7%; Cruzain Triton: -0.4%; SARS PLP yeast: 1%; 2A StopGo: 0%; NS1 function inh: -3%; Lassa entry inh: 0%; Marburg entry inh: 5%; Cruzain noTriton: 13µM*

How did Cc1ccc(C)c(N2CCN(Cc3nnnn3C3CCCCC3)CC2)c1 do in these assays?
RE007 growth inh: 18%; Cruzain Triton: -6.0%; SARS PLP yeast: -21%; 2A StopGo: inconclusive; NS1 function inh: -37%; Lassa entry inh: inconclusive; Marburg entry inh: inconclusive; Cruzain noTriton: 5%

Results for COc1cc2ccccc2cc1C(=O)N1CCN(c2ccccn2)CC1 ?
RE007 growth inh: 10%; SARS PLP yeast: -21%; 2A StopGo: -13%; NS1 function inh: -43%; Lassa entry inh: -25%; Marburg entry inh: inconclusive

Results for NS(=O)(=O)c1ccc(N/N=C2/CCCCC2C2CCCCC2)c([N+](=O)[O-])c1 (stereo not given) ?
RE007 growth inh: 0%; Cruzain Triton: -5.1%; SARS PLP yeast: -58%; 2A StopGo: inconclusive; NS1 function inh: -33%; Lassa entry inh: inconclusive; Marburg entry inh: inconclusive; Cruzain noTriton: 4%

What do the screens show for `O=C(NCCSCc1ccccc1)c1ccc(Cl)c(S(=O)(=O)N2CCOCC2)c1`?
RE007 growth inh: -8%; Cruzain Triton: -2.7%; SARS PLP yeast: -13%; 2A StopGo: inconclusive; NS1 function inh: -5%; Lassa entry inh: 3%; Marburg entry inh: inconclusive; Cruzain noTriton: 0%

What do the screens show for `CC1CCN(S(=O)(=O)c2ccc3c(c2)N(CC(=O)NCCCN2C(C)CCCC2C)C(=O)CO3)CC1` (stereo not given)?
RE007 growth inh: 1%; SARS PLP yeast: -15%; 2A StopGo: -7%; NS1 function inh: -3%

What do the screens show for `C[C@@H]1C=C[C@](Cc2ccccc2)(C(=O)O)N1C(=O)c1ccccc1`?
RE007 growth inh: 67%; Cruzain Triton: 0.7%; 2A StopGo: -18%; Cruzain noTriton: -4%

How did O=C(COC(=O)c1n[nH]c2ccccc12)Nc1ccc(S(=O)(=O)N2CCCC2)cc1 do in these assays?
RE007 growth inh: 1%; Cruzain Triton: 0.7%; SARS PLP yeast: 1%; 2A StopGo: inconclusive; NS1 function inh: 0%; Lassa entry inh: -25%; Marburg entry inh: inconclusive; Cruzain noTriton: -17%

Results for COc1ccc(C(=O)OCc2c(-c3cccc(OC)c3)ncc3ccccc23)cc1 ?
RE007 growth inh: 16%; SARS PLP yeast: -1%; 2A StopGo: -28%; Marburg entry inh: -5%

What do the screens show for `COc1cc(CNc2ccc3[nH]c(=O)[nH]c3c2)cc(Br)c1OCc1ccccc1F`?
RE007 growth inh: 9%; Cruzain Triton: -4.9%; SARS PLP yeast: inconclusive; 2A StopGo: inconclusive; NS1 function inh: 0.79µM*; Lassa entry inh: -23%&-30%[46.1 µM]; Marburg entry inh: inconclusive; Cruzain noTriton: inconclusive

What do the screens show for `Cc1cc(C(=O)Nc2ccc([N+](=O)[O-])cn2)cs1`?
RE007 growth inh: -20%; SARS PLP yeast: -6%; 2A StopGo: 45%[activator]; NS1 function inh: -11%

How did OC(CN1CCCCC1)Cn1c(C(F)(F)F)nc2ccccc21 (stereo not given) do in these assays?
RE007 growth inh: -1%; Cruzain Triton: 0.2%; SARS PLP yeast: inconclusive; 2A StopGo: -12%; NS1 function inh: 1%; Lassa entry inh: 4%; Marburg entry inh: 3%; Cruzain noTriton: -4%

How did COc1ccc(N2C(=O)CC(N3CCN(S(=O)(=O)c4c(C)cc(C)cc4C)CC3)C2=O)cc1 (stereo not given) do in these assays?
RE007 growth inh: -8%; SARS PLP yeast: 0%; 2A StopGo: -15%; Lassa entry inh: -13%; Marburg entry inh: inconclusive

Results for Cc1ccc(N(CC(=O)NCc2ccccc2)C(=O)CCC(=O)Nc2ccccn2)cc1C ?
RE007 growth inh: -9%; SARS PLP yeast: 0%; 2A StopGo: 16%; NS1 function inh: -16%; Lassa entry inh: inconclusive; Marburg entry inh: inconclusive

What do the screens show for `Cc1nc(/C(N)=N/OC(=O)c2ccc(Cl)cc2)c(C(F)(F)F)o1`?
RE007 growth inh: 15%; SARS PLP yeast: -1%; 2A StopGo: 7%; NS1 function inh: -37%

Results for Cc1nnc(NC(=O)c2nc(S(=O)(=O)Cc3ccccc3C)ncc2Cl)s1 ?
RE007 growth inh: -20%; SARS PLP yeast: 3%; 2A StopGo: 25µM*; NS1 function inh: inconclusive

What do the screens show for `CCn1c(-c2nn(C)cc2Cl)n[nH]c1=S`?
RE007 growth inh: -8%; Cruzain Triton: -1.0%; SARS PLP yeast: -10%; 2A StopGo: -19%; NS1 function inh: 13%; Lassa entry inh: -12%; Marburg entry inh: 2%; Cruzain noTriton: 13%

Results for CCCCN(Cc1ccccc1)C(=O)CCN1C(=O)C2C3C=CC(C3)C2C1=O (stereo not given) ?
RE007 growth inh: -11%; SARS PLP yeast: 2%; 2A StopGo: -7%; NS1 function inh: 5%; Lassa entry inh: -28%[46.1 µM]; Marburg entry inh: 14%[46.1 µM]

What do the screens show for `COC(=O)Cn1c(CCS(=O)(=O)c2ccc(C)c(C)c2)nc2ccccc21`?
RE007 growth inh: 8%; Cruzain Triton: -4.0%; SARS PLP yeast: -5%; NS1 function inh: -11%; Lassa entry inh: 3%; Marburg entry inh: -1%; Cruzain noTriton: 5%

Results for CCOc1ccc(CNC(=O)c2ccc3nc(N4CCOCC4)sc3c2)cc1 ?
RE007 growth inh: -2%; SARS PLP yeast: -1%; 2A StopGo: 17%; NS1 function inh: -4%

What do the screens show for `COC(=O)Cn1c(CN2CCN(C(=O)c3ccco3)CC2)nc2c1c(=O)n(C)c(=O)n2C`?
RE007 growth inh: 5%; SARS PLP yeast: 0%; 2A StopGo: -4%; NS1 function inh: 3%

Results for O=C(CSc1nnc(-c2ccco2)o1)c1ccc([N+](=O)[O-])cc1 ?
RE007 growth inh: 0%; SARS PLP yeast: 1%; 2A StopGo: -2%; NS1 function inh: 4%

How did O=C(O)CCCn1cc(NC(=O)COc2cc(F)ccc2[N+](=O)[O-])cn1 do in these assays?
RE007 growth inh: 0%; SARS PLP yeast: 1%; 2A StopGo: -3%; NS1 function inh: 5%; Lassa entry inh: -3%; Marburg entry inh: 9%[46.1 µM]

How did CC(C(=O)NC1C=CS(=O)(=O)C1)N1C(=O)/C(=C/c2cccc(Cl)c2)SC1=S (stereo not given) do in these assays?
RE007 growth inh: 6%; SARS PLP yeast: 0%; 2A StopGo: 2%; NS1 function inh: 7%

How did COCCn1c(C)cc(O)c(C(c2ccc(OC)cc2)N2CCN(c3ccccc3)CC2)c1=O (stereo not given) do in these assays?
Cruzain Triton: 1.7%; 2A StopGo: -21%; Lassa entry inh: 3%[46.1 µM]; Cruzain noTriton: 21%

How did CC(=O)Nc1ccc(S(=O)(=O)NNC(=O)c2sc(=S)n(C)c2C)cc1 do in these assays?
RE007 growth inh: 11%; Cruzain Triton: -8.6%; SARS PLP yeast: -1%; 2A StopGo: -11%; NS1 function inh: -1%; Lassa entry inh: 8%; Marburg entry inh: 6%; Cruzain noTriton: 3%

Results for CN(C)c1nnnn1Cc1ccc(Cl)cc1Cl ?
RE007 growth inh: 17%; SARS PLP yeast: 0%; 2A StopGo: 2%; Lassa entry inh: 7%[46.1 µM]; Marburg entry inh: 8%[46.1 µM]

How did COc1ccc(NC(=S)NCc2cccn2C)cc1 do in these assays?
RE007 growth inh: -11%; SARS PLP yeast: 0%; 2A StopGo: 20%; NS1 function inh: 15%; Lassa entry inh: -14%; Marburg entry inh: 23%[46.1 µM]

Results for Cn1c(O)c(/C=C2\C=NN=C2c2ccccc2)sc1=S ?
RE007 growth inh: -14%; SARS PLP yeast: -2%; 2A StopGo: -20%; NS1 function inh: 6%

Results for Cc1cc(C)nc(SCC(=O)Nc2ccc(S(=O)(=O)Nc3onc(C)c3C)cc2)n1 ?
RE007 growth inh: -5%; Cruzain Triton: 5.8%; SARS PLP yeast: -1%; 2A StopGo: -25%; NS1 function inh: -1%; Cruzain noTriton: -4%

Results for O=C(C1COc2ccccc2O1)N1CCN(c2ccc(F)cc2)CC1 (stereo not given) ?
RE007 growth inh: 2%; Cruzain Triton: -4.9%; SARS PLP yeast: -9%; NS1 function inh: -76%; Lassa entry inh: inconclusive; Marburg entry inh: 13%; Cruzain noTriton: 10%

Results for C=CCC1(CC=C)CCCN1C(=O)C1CCC(=O)N(CCc2ccc(Cl)cc2)C1 (stereo not given) ?
RE007 growth inh: -2%; SARS PLP yeast: -3%; 2A StopGo: 2%; NS1 function inh: -14%

Results for CCOC(=O)NC(=O)CSc1nc2ccccc2[nH]1 ?
RE007 growth inh: -9%; SARS PLP yeast: 0%; 2A StopGo: 0%; NS1 function inh: 20%; Lassa entry inh: -1%[46.1 µM]; Marburg entry inh: 0%[46.1 µM]

What do the screens show for `Cc1cccc(-c2nnc(SCC#N)n2C)c1`?
RE007 growth inh: -1%; SARS PLP yeast: 1%; 2A StopGo: -7%; NS1 function inh: 3%; Lassa entry inh: 3%; Marburg entry inh: inconclusive

Screening results as filed in PubChem.
